Compound activity from PubChem BioAssay.
LASV entry inh – qHTS for Inhibitors of binding or entry into cells for Lassa Virus | Lassa virus pseudotype entry inhibition, cell reporter; control for the full effect not named in the record | Potency, µM (top dose mostly 37.9 µM), without a hit: top-dose activity change, negative = inhibition, hits mostly inhibitors | 300,000 compounds, 1.2% hits | AID 540256, 2011; active means well fitted inhibition curve with a large enough effect; inconclusive means small, poorly fitted or top-dose-only effect, or effect the other way; inactive means flat fitted curve, though single readings scatter; tested in HEK293 cells; also: % is scaled to controls: 0 for no effect and ±100 for the full control effect; nearly all actives have a fitted effect of over 50% in size; luciferase read-out
Marburg entry inh – qHTS for inhibitors of binding or entry into cells for Marburg Virus. Marburg virus pseudotyped entry inhibition, cell reporter; control for the full effect not named in the record; about a third of the inactives were read at about 46 µM. Potency, µM (highest dose often 37.8 µM), for the others: at the top dose activity change, negative = inhibition, hits mostly inhibitors. 300,000 compounds, 1.8% hits. AID 540276, 2011; active = well fitted inhibition curve with a large enough effect; inconclusive = small, poorly fitted or top-dose-only effect, or effect the other way; inactive = flat fitted curve, though single readings scatter; tested in HEK293 cells; about a fifth of its hits are not listed in these tables; also: % is scaled to controls: 0 for no effect and ±100 for the full control effect; luciferase read-out
Cruzain Triton – qHTS Assay for Promiscuous and Specific Inhibitors of Cruzain (with detergent) | purified cruzain, Z-FR-AMC fluorescence, 0.01% Triton | Potency, µM, for inactives: max response, negative = inhibition, most hits filed as inhibitors | 200,000 compounds, 0.43% hits;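 also: plate controls were neutral wells for no effect and buffer without enzyme for full effect; nearly all actives have a fitted effect of over 40% in size; top concentration of the series not given in the record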
Target sequence (P25779 123-467 limits assumed): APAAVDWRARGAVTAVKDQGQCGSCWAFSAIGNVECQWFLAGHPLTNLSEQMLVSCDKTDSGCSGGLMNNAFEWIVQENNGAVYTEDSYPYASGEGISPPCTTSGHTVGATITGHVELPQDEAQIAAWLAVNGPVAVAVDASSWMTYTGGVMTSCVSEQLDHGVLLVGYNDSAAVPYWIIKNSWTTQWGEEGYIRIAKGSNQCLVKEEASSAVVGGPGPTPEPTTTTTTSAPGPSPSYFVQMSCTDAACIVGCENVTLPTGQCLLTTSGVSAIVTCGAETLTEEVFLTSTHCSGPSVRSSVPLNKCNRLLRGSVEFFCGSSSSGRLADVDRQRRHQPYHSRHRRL
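Z-FR-AMC hydrolysis (2 uM substrate) by cruzain (1.5 nM) monitored kinetically at ex 360/em 450 nm after 15 min room-temperature compound exposure; 0.01% Triton X-100, pH 5.5, 5 mM DTT.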
Cruzain inh noDet – qHTS Assay for Promiscuous and Specific Inhibitors of Cruzain (without detergent) | Cruzipain (Trypanosoma cruzi), P25779 | purified cruzain, Z-FR-AMC fluorescence, no detergent | Potency, µM, for inactives: max response, negative = inhibition, usual class: inhibitors | 200,000 compounds, 2.3% hits | AID 1476, 2009;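 also: plate controls were enzyme without inhibitor for no effect and buffer without enzyme for full effect; nearly all actives have a fitted effect of over 40% in size; top concentration of the series not given in the record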
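Detergent-free condition (0.00005% Triton X-100) in acetate buffer pH 5.5 with DTT. 1.5 nM enzyme and compound were pre-mixed 15 min, then 2 uM Z-FR-AMC substrate added; reaction progress from fluorescence change between first and third reads (60 s).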
SARS PLpro yeast – qHTS of Yeast-based Assay for SARS-CoV PLP | 330,000 compounds, 0.19% hits | S. cerevisiae expressing SARS-CoV PLpro, growth rescue; control for the full effect not named in the record | AID 485353, 2010 | Potency, µM (series often up to 32.9 µM), for the others: at the highest dose activity, positive = growth rescue; active means well fitted rising curve with a large enough effect; inconclusive means small, poorly fitted or top-dose-only effect; inactive means no such curve, though single readings can be large or run the other way; also: 0% is about no effect; nearly all actives have a fitted effect of over 55% in size; growth read by luminescence after 48 h
RE007 growth inh – qHTS Assay for Inhibitors of the HIV-1 protein Vpr. S. pombe RE007 Vpr strain, BacTiter-Glo ATP luminescence, 24 h; control for the full effect not named in the record. Potency, µM (doses to about 92.2 µM), inactives show at the top dose activity change, negative = less growth. 360,000 compounds, 0.21% hits. AID 651644, 2012; active = well fitted falling curve with a large enough effect; inconclusive = small, poorly fitted or top-dose-only effect; inactive = no such curve, though single readings can be large or run the other way;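 also: % is scaled to controls: 0 for no effect and ±100 for the full control effect; nearly all actives have a fitted effect of over 50% in size; the assay follows cell death caused by Vpr and the record does not say whether a fall means rescue or toxicity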
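Fission yeast RE007 carrying one integrated HIV-1 vpr copy, seeded at OD 0.01 in PMG+AL medium with 23 nL pinned compound. Grown 24 h at 30 degrees; viability read by BacTiter-Glo luminescence after 5 min.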
2A StopGo – High Throughput Screening for Foot and Mouth Disease Virus Antivirals; AID 1159524, 2015; human cells with a luciferase reporter of 2A StopGo recoding; control for the full effect not named in the record; Potency, µM (doses to about 57.9 µM), without a hit: at the highest dose signal change, negative = less light; 410,000 compounds, 1.2% hits; active = well fitted falling curve with a large enough effect; inconclusive = small, poorly fitted or top-dose-only effect; inactive = no such curve, though single readings can be large or run the other way; tested in HEK293T cells; also: % is scaled to controls: 0 for no effect and ±100 for the full control effect; nearly all actives have a fitted effect of over 45% in size; luciferase light after 4 h
NS1 inh – qHTS Assay for Inhibitors of Influenza NS1 Protein Function; S. cerevisiae slowed by influenza A NS1, growth recovery by OD600; Potency, µM (highest dose often 46.1 µM), for the others: top-dose activity, positive = more growth; 270,000 compounds, 0.4% hits; active means well fitted rising curve with a large enough effect; inconclusive means small, poorly fitted or top-dose-only effect; inactive means no such curve, though single readings can be large or run the other way; also: nearly all actives have a fitted effect of over 50% in size
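Compounds were scored for reversing the slow growth caused by influenza A NS1 in S. cerevisiae, measured by optical density at 600 nm. Assay medium contained 2% galactose at pH 6.0; NS1-free yeast of the same strain were the positive control.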
* hit, by the source's call; ? = inconclusive; . = no result given; & = joins results of further samples; [ ] = another dose, or the depositor's remark. Unless noted, calls follow the shape of the dose curve; as a rule, active = well fitted curve in the direction sought with a large enough effect; inconclusive = small, poorly fitted or top-dose-only effect, or another doubt; inactive = no such curve, though single readings can be large; an effect the other way counts as inactive or inconclusive. Potency is read from the fitted curve at half-maximal effect. Random draw from the library; 4.6% or so of the library scored in one or more.

Every second line gives: LASV entry inh, Marburg entry inh, Cruzain Triton, Cruzain inh noDet, SARS PLpro yeast, RE007 growth inh, 2A StopGo, NS1 inh
1	COc1cc(C)c(Cl)cc1S(=O)(=O)NCC1CCCO1 (stereo not drawn)
  0%, 1%, 2.9%, 10%, 3%, -9%, 81%[activator], -5%
2	COc1cc(/C=N/NC(=S)Nc2cccc(Cl)c2C)ccc1OCC(=O)N1CC(C)OC(C)C1 (stereo not drawn)
  ?, ?, -18%, ?, -8%, -1%, ?, ?
3	COc1ccc(C2CC(C(F)(F)F)n3nc(C(=O)O)c(Cl)c3N2)cc1OC (stereo not drawn)
  16%, 8%, -7.3%, 2%, -2%, -9%, 0%, -11%
4	O=C(Nc1ccc2c(c1)OCCO2)N1CCN(c2ccc(F)cc2)CC1
  -1%, 6%, -0.9%, -5%, 3%, 18%, -21%, -19%
5	Cc1ccc(-c2nn(CCC(=O)O)cc2/C=C\C(=O)c2ccc(Br)cc2)cc1
  ., ., ., ., -3%, -8%, ?, ?
6	CCOC(=O)c1cccc(NC(=O)CN(c2ccc(C)cc2)S(=O)(=O)c2c(C)noc2C)c1
  -28%, -17%, -4.9%, 20%, 5%, 24%, ?, -57%
7	COc1ccc(N2C(=O)CC(Sc3nnc(-c4ccccc4)o3)C2=O)cc1 (stereo not drawn)
  -1%, -30%, -2.2%, -5%, -25%, -14%[3.69 µM], ?, -237%
8	CC(=O)Nc1cc(C(=O)NCc2ccc(C)cc2)ccc1Sc1ccc(C)cc1
  -21%[46.1 µM], ., 0.7%, 7%, ., ., -18%, .
9	CCCn1nnnc1SCC(=O)N1CCCC1
  26%, 1%, 2.4%, 0%, 2%, -1%, 24%, -26%
10	CCOC(=O)c1cc2c(ccn2C)n1CC(=O)N(Cc1ccccc1)c1ccc(F)cc1
  ?, ?, -9.4%, -2%, -26%, 22%, 7%, ?
11	COCCn1c(SC)nnc1-c1c[nH]c2ccccc12
  ., ., -3.5%, -4%, -3%, -4%, 26%, 10%
12	O=C(Nc1cccc(C(=O)O)c1)/C(=C\C=C\c1ccccc1)NC(=O)c1ccccc1
  13%[46.1 µM], 22%[46.1 µM], ., ., 0%, -2%, 4%, 3%
13	COc1ccc(/C=N/NC(=O)CNC(=O)/C=C/c2ccccc2OC)cc1
  ?, -2%[46.1 µM], ., ., 0%, 1%, 1%, -3%
14	COc1cc(C(=O)Nc2c(-c3ccccn3)c(=O)c3ccccc3n2C)cc(OC)c1OC
  ., ., -3.8%, 3%, 6%, ., ., -32%
15	CC(=O)OC(C(=O)NC1CCCCC1)c1ccc(C#N)cc1 (stereo not drawn)
  2%, 4%[46.1 µM], 3.4%, 12%, 4%, 25%, 17%, -8%
16	CCc1cccc(NC(=O)CN(C)S(=O)(=O)c2cccc3cccnc23)c1
  9%, ?, -3.8%, -6%, -1%, -13%, -26%&-20%, -1%
17	CCN1CCN(c2cc(N3CCCC3)c(F)cc2[N+](=O)[O-])CC1
  ?, 21µM*, -14%, -20%, -9%, -25%, -11%, -7%
18	CCOC(=O)c1[nH]c(=S)n(Cc2ccccc2)c1C(=O)OCC
  5%[46.1 µM], 1%[46.1 µM], ., ., ., 3%, 2%, .
19	CC1(C)Cc2c(sc(NC(=O)c3ccccc3)c2C(=O)O)CO1
  ?, ?, ., ., -2%, -8%, 9%, -3%
20	CCOc1cc2[nH]c(=O)n(CCCC(=O)NCc3ccco3)c(=O)c2cc1OCC
  -4%, ?, -5.6%, -5%, -11%, 0%, -3%, -9%
21	COc1ccccc1-n1c(SCC(=O)O)nc2c(sc(=S)n2-c2ccccc2C)c1=O
  ., ., ., ., 0%, 4%, -15%, 8%
22	COc1ccc(NC(=O)Cn2c(=O)n(Cc3ccccc3)c(=O)c3oc4ccccc4c32)cc1Cl
  ?, ., -2.0%, -28%, ., ., 4%, .
23	S=c1[nH]nc(-c2ccc(Cl)cc2)n1CC1CCCO1 (stereo not drawn)
  7%, -4%, 0.7%, 2%, 3%, -5%, -21%, -7%
24	Cc1ccccc1C1C(C#N)=C2N=C(N)c3ccccc3N2C2=C1C(=O)CCC2 (stereo not drawn)
  -11%, -21%[46.1 µM], ., ., -3%, -15%, 9%, 0%
25	CCOc1cc(NC(=O)c2ccccn2)c(OCC)cc1NC(=O)c1cccc(C)c1
  -15%, -3%, ., ., 0%, 2%, ?, 2%
26	CNC(=S)N/N=C/c1c(C)nn(-c2ccccc2)c1Cl
  2%, -26%, -16%, -2%, -6%, -13%, 23%, 8%
27	CC1=CC(C)(C)N(C(=O)CSc2ncn[nH]2)c2ccc(C)cc21
  6%, -9%, 1.6%, -3%, 20%[6.58 µM], 6%, ., -1%
28	Cc1ccc(/C=C2\SC(=S)N(CCCC(=O)Nc3ccc(O)cc3)C2=O)cc1
  ?, 14%[46.1 µM], ., ., 0%, 6%, -5%, -2%
29	O=C(Cn1cnc([N+](=O)[O-])c1)NC1CCCC1
  9%[46.1 µM], -10%, 0.6%, 3%, 17%, -12%, 5%, 6%
30	Cc1ccc(S(=O)(=O)N2CCN=C2c2ccccc2)cc1C
  -8%, -6%[46.1 µM], -1.1%, -5%, 1%, 12%, 16%, -9%

(list continues)
no. | Structure | LASV entry inh | Marburg entry inh | Cruzain Triton | Cruzain inh noDet | SARS PLpro yeast | RE007 growth inh | 2A StopGo | NS1 inh
31 | Cn1c(=O)c2nc(-c3ccc(Cl)cc3Cl)oc2c2ccccc21 | . | . | -4.7% | 19% | 7% | 1% | 5% | -1%
32 | O=C(Cn1c2ccccc2c2nc3n(c(=O)c21)CCCS3)Nc1ccccc1 | -19%[46.1 µM] | -3%[46.1 µM] | . | . | -1% | -3% | 25% | -2%
33 | C/C(CC(=O)Nc1ccc2c(c1)OCCO2)=N\NC(=O)c1ccc([N+](=O)[O-])cc1Cl | 3% | 19%[46.1 µM] | . | . | -4% | -2% | 11% | 22%
34 | Cc1cccc(C(=O)NNC(=O)c2cccc([N+](=O)[O-])c2)c1 | 7% | ? | . | . | -6% | 4% | 15% | .
35 | CN(C)c1ccc(/C=N/NC(N)=S)cc1[N+](=O)[O-] | -5% | -8%[46.1 µM] | . | . | 9% | 20% | 28% | 6%
36 | Cc1ccc(-c2ccc(=O)n(CC(=O)NCCN(CC(C)C)CC(C)C)n2)cc1 | . | . | . | . | 0% | 11% | -21% | 2%
37 | COc1ccc(NC(=O)C(c2ccccc2)N(C)C(=O)c2cnccn2)cc1 (stereo not drawn) | -1% | -4% | 1.8% | -5% | 7% | 6% | 16% | -2%
38 | NC(=O)CC(NC(=O)Cc1cccc2ccccc12)c1ccc(NCc2cc(F)ccc2F)c([N+](=O)[O-])c1 (stereo not drawn) | . | . | . | . | -1% | -18% | -15% | 3%
39 | O=C(O)c1cccc(NC(=O)C23CC4CC(C2)CC(n2cnc(Cl)n2)(C4)C3)c1 | 17% | ? | -0.3% | -1% | 7% | -5% | 1% | 9%
40 | CCN1CCN(c2nc3c(C)cccn3c(=O)c2/C=C(\C#N)S(=O)(=O)c2ccccc2)CC1 | 3% | ? | -1.7% | 1% | 6% | -14% | -3% | 9%
41 | c1ccc2[nH]c(CSc3nnc(-c4ccncc4)o3)nc2c1 | 4% | -1% | -20% | 13µM* | 2% | -9% | ? | -2%
42 | Cn1c(=O)c2c(nc(-c3ccc(N(CCCl)CCCl)cc3)n2C)n(C)c1=O | ? | ? | . | . | . | 4% | 32µM* | .
43 | COc1ccccc1NC(=O)CN1C(=O)C2(SCC(=O)N2c2ccc(F)c(F)c2)c2ccccc21 (stereo not drawn) | -12%[46.1 µM] | . | -5.2% | 16µM* | . | . | -16% | .
44 | CC(C)CNS(=O)(=O)c1ccc(NC(=O)Cn2nc(-c3ccc(F)cc3)ccc2=O)cc1 | ? | ? | -4.4% | -5% | -6% | -11% | 9% | 12%
45 | COc1ccc(CCC(=O)OCC(=O)Nc2c(C)nn(-c3ccccc3)c2C)cc1 | 7% | 24%[46.1 µM] | . | . | 3% | -5% | 1% | .
46 | C=CCOC(=O)C1=C[C@H](c2coc3ccccc3c2=O)[C@@H](CCCO)[C@H](OCC)O1 | . | . | . | . | 0% | 17% | -18% | 0%
47 | O=C(CCN1C(=O)[C@@H]2Cc3ccccc3CN2C1=O)NCc1ccccc1Cl | . | . | . | . | -1% | 3% | -5% | -7%
48 | Cc1cc(C)nc(/N=C(\N)Nc2ccc([N+](=O)[O-])cc2)n1 | 14% | -14% | -7.9% | -7% | 7% | -12% | 10% | 7%
49 | CC(=O)Nc1ccc(S(=O)(=O)NCCC(=O)Nc2ccc(C)cn2)cc1 | 10% | 11% | . | . | 2% | 9% | -3% | -7%

From compound 45 up to 48, as listed above:
no. | Structure | LASV entry inh | Marburg entry inh | Cruzain Triton | Cruzain inh noDet | SARS PLpro yeast | RE007 growth inh | 2A StopGo | NS1 inh
45 | COc1ccc(CCC(=O)OCC(=O)Nc2c(C)nn(-c3ccccc3)c2C)cc1 | 7% | 24%[46.1 µM] | . | . | 3% | -5% | 1% | .
46 | C=CCOC(=O)C1=C[C@H](c2coc3ccccc3c2=O)[C@@H](CCCO)[C@H](OCC)O1 | . | . | . | . | 0% | 17% | -18% | 0%
47 | O=C(CCN1C(=O)[C@@H]2Cc3ccccc3CN2C1=O)NCc1ccccc1Cl | . | . | . | . | -1% | 3% | -5% | -7%
48 | Cc1cc(C)nc(/N=C(\N)Nc2ccc([N+](=O)[O-])cc2)n1 | 14% | -14% | -7.9% | -7% | 7% | -12% | 10% | 7%
